Source: PubChem (Broad Institute)
A1 apoptosis 2: A1 inhibitors via caspase activation, primary screen, cell-based, luminescence, HTS, two replicates; 24,000 tested, under 10 active; MEF A1-2A-BIM cells, caspase-Glo luminescence, 3 h; percent of clofoctol response, DMSO zero; AID 2465, 2010; caspase activation, % (no concentration beside the values); in the data active = caspase activation above about 5.9%;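 note: wells of about 30 µL received 50 nL stock; the first replicate is given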
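Evaluation: Caspase-3/7 activity from luminescence increase | Assay system: A1-2A-BIM mouse embryonic fibroblasts | Quantity: 2500 MEF cells/well | Medium: RPMI-1640 plus 10% FBS | Detection: Caspase-Glo 3/7 luminescence, 1 h at room temperature | Dosing: 50 nL compound per well, pinned | Timing: Cells settled overnight, compound exposure 3 h at 37 °C, 5% CO2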
* = called active by the depositor; & = joins results of further samples. Not all compounds are listed; count on the stated rates, not on these rows.

SMILES	A1 apoptosis 2
Cc1cc(C(=O)Nc2cccc3c2O[C@H](CN(C)Cc2ccc4c(c2)OCO4)[C@H](C)CN([C@H](C)CO)C3=O)n(C)n1	1.1
C[C@@H]1CN([C@H](C)CO)C(=O)c2cc(NS(=O)(=O)c3ccccc3)ccc2O[C@H]1CN(C)C(=O)Nc1ccccc1	0.3
C[C@@H]1CN([C@@H](C)CO)C(=O)CCCn2nncc2CO[C@@H]1CN(C)CC1CCCCC1	-0.9
C[C@@H]1CN([C@@H](C)CO)C(=O)Cc2cc(NC(=O)Cc3ccccc3)ccc2O[C@H]1CN(C)S(=O)(=O)c1ccc(F)cc1	1.1
Cc1noc(C)c1NC(=O)Nc1cccc2c1O[C@H](CN(C)Cc1ccc(Oc3ccccc3)cc1)[C@H](C)CN([C@@H](C)CO)C2=O	0.8
Cc1noc(C)c1NC(=O)N(C)C[C@H]1Oc2ccc(NS(=O)(=O)c3ccc(Cl)cc3)cc2CC(=O)N([C@@H](C)CO)C[C@H]1C	-0.1
COc1ccc(S(=O)(=O)Nc2ccc3c(c2)C(=O)N([C@H](C)CO)C[C@@H](C)[C@@H](CN(C)S(C)(=O)=O)OCCCC[C@@H](C)O3)cc1	-1.5
COc1ccc(S(=O)(=O)N(C)C[C@H]2Oc3ccc(NS(=O)(=O)c4cccs4)cc3C(=O)N([C@@H](C)CO)C[C@@H]2C)cc1	-1.5
COc1ccc(NC(=O)CN=[N+]=[N-])cc1OC	0.5&0.3
Cc1noc(C)c1S(=O)(=O)Nc1cccc2c1O[C@H](CN(C)Cc1ccc(C(=O)O)cc1)[C@H](C)CN([C@H](C)CO)C2=O	-0.8
CNC[C@H]1Oc2ccc(NC(=O)c3ccncc3)cc2CC(=O)N([C@H](C)CO)C[C@@H]1C	0.4
COc1ccc(S(=O)(=O)N(C)C[C@H]2Oc3ccc(NC(=O)Nc4ccc(F)cc4)cc3C(=O)N([C@@H](C)CO)C[C@@H]2C)cc1	-0.3
C[C@@H]1CN([C@@H](C)CO)C(=O)c2cc(NC(=O)Nc3ccccc3)ccc2O[C@@H]1CN(C)Cc1ccccc1	-0.2
CC(C)NC(=O)N(C)C[C@@H]1OCCCC[C@@H](C)Oc2ccc(NC(=O)Nc3ccccc3)cc2C(=O)N([C@@H](C)CO)C[C@H]1C	0.1
Cc1noc(C)c1S(=O)(=O)Nc1ccc2c(c1)C(=O)N([C@@H](C)CO)C[C@@H](C)[C@@H](CN(C)C(=O)Nc1ccc3c(c1)OCO3)OCCCC[C@@H](C)O2	-0.1
O=C(Nc1ccccc1)C1=C[C@H](c2coc3ccccc3c2=O)C[C@H](OCCCCO)O1	1.4
C[C@H]1CCCCO[C@H](CN(C)Cc2ccccc2)[C@@H](C)CN([C@@H](C)CO)C(=O)c2cc(NS(=O)(=O)c3ccccc3)ccc2O1	-0.4
COc1ccc(S(=O)(=O)N(C)C[C@@H]2Oc3ccc(NC(=O)Nc4ccc5c(c4)OCO5)cc3CC(=O)N([C@H](C)CO)C[C@@H]2C)cc1	-0.7
Cc1ccc(S(=O)(=O)Nc2ccc3c(c2)C(=O)N([C@H](C)CO)C[C@H](C)[C@@H](CN(C)C(=O)NC(C)C)OCCCC[C@H](C)O3)cc1	0.6
C[C@H](CO)N1C[C@H](C)[C@H](CN(C)S(=O)(=O)c2ccc(F)cc2)Oc2ncccc2C1=O	-1.0
Cc1ccc(S(=O)(=O)N(C)C[C@@H]2Oc3ncc(-c4cc5ccccc5o4)cc3C(=O)N([C@H](C)CO)C[C@@H]2C)cc1	-0.7
C[C@@H]1CN([C@@H](C)CO)C(=O)c2cc(NC(=O)c3ccncc3)ccc2O[C@H]1CN(C)C(=O)Nc1ccc2c(c1)OCO2	0.9
C[C@@H]1CN([C@@H](C)CO)C(=O)CCCn2cc(nn2)CO[C@@H]1CN(C)Cc1cccnc1	0.1
C[C@H](CO)N1C[C@H](C)[C@H](CN(C)S(=O)(=O)c2ccc(Cl)cc2)Oc2c(NS(=O)(=O)c3ccc(F)cc3)cccc2C1=O	0.9
C[C@@H]1CN([C@H](C)CO)C(=O)c2cc(NC(=O)NC3CCCCC3)ccc2O[C@@H](C)CCCCO[C@@H]1CN(C)Cc1ccc(C(F)(F)F)cc1	-0.1
COc1ccc(NC(=O)N(C)C[C@@H]2Oc3c(NC(=O)C4CCCCC4)cccc3C(=O)N([C@H](C)CO)C[C@@H]2C)cc1	2.9
C[C@@H]1CN([C@@H](C)CO)C(=O)Cc2cc(NC(=O)Nc3ccc(F)cc3)ccc2O[C@@H]1CN(C)Cc1ccc(-c2ccccc2)cc1	-0.7
C[C@H](CO)N1C[C@H](C)[C@H](CN(C)C(=O)Nc2ccc(C(F)(F)F)cc2)Oc2c(NC(=O)Nc3ccc4c(c3)OCO4)cccc2C1=O	-1.0
C[C@@H]1CN([C@@H](C)CO)C(=O)Cc2cc(NC(=O)CCN3CCOCC3)ccc2O[C@H]1CN(C)S(=O)(=O)c1cccs1	-0.7
CC(C)NC(=O)Nc1ccc2c(c1)C(=O)N([C@@H](C)CO)C[C@H](C)[C@H](CN(C)S(=O)(=O)c1cn(C)cn1)OCCCC[C@H](C)O2	-0.5
C[C@@H]1CN([C@@H](C)CO)C(=O)c2cc(NS(=O)(=O)c3ccc(Cl)cc3)ccc2O[C@H]1CN(C)C	0.1
C[C@H](CO)N1C[C@H](C)[C@H](CN(C)C(=O)Nc2ccc3c(c2)OCO3)Oc2ccc(NC(=O)NC3CCCCC3)cc2C1=O	-1.5
Cc1ccc(S(=O)(=O)N(C)C[C@@H]2Oc3c(NC(=O)Nc4ccccc4)cccc3C(=O)N([C@@H](C)CO)C[C@@H]2C)cc1	-0.8
C[C@@H]1CN([C@@H](C)CO)C(=O)c2cccc(NC(=O)c3cnccn3)c2O[C@H]1CN(C)S(=O)(=O)c1cn(C)cn1	-0.2
C[C@@H]1CN([C@@H](C)CO)C(=O)Cc2cc(NC(=O)Cc3ccccc3)ccc2O[C@H]1CN(C)CC1CC1	1.5
C[C@H]1CN([C@@H](C)CO)C(=O)Cc2cc(NC(=O)Nc3cccc4ccccc34)ccc2O[C@@H]1CN(C)S(=O)(=O)c1ccc(F)cc1	-0.5

9 entries out of the list, ordered by formula weight, falling.
SMILES	A1 apoptosis 2
C[C@@H]1CN([C@H](C)CO)C(=O)c2cc(NC(=O)NC3CCCCC3)ccc2O[C@@H](C)CCCCO[C@@H]1CN(C)Cc1ccc(C(F)(F)F)cc1	-0.1
C[C@H](CO)N1C[C@H](C)[C@H](CN(C)C(=O)Nc2ccc(C(F)(F)F)cc2)Oc2c(NC(=O)Nc3ccc4c(c3)OCO4)cccc2C1=O	-1.0
C[C@H]1CN([C@@H](C)CO)C(=O)Cc2cc(NC(=O)Nc3cccc4ccccc34)ccc2O[C@@H]1CN(C)S(=O)(=O)c1ccc(F)cc1	-0.5
C[C@@H]1CN([C@@H](C)CO)C(=O)Cc2cc(NC(=O)Nc3ccc(F)cc3)ccc2O[C@@H]1CN(C)Cc1ccc(-c2ccccc2)cc1	-0.7
C[C@@H]1CN([C@@H](C)CO)C(=O)Cc2cc(NC(=O)CCN3CCOCC3)ccc2O[C@H]1CN(C)S(=O)(=O)c1cccs1	-0.7
C[C@H](CO)N1C[C@H](C)[C@H](CN(C)C(=O)Nc2ccc3c(c2)OCO3)Oc2ccc(NC(=O)NC3CCCCC3)cc2C1=O	-1.5
Cc1ccc(S(=O)(=O)N(C)C[C@@H]2Oc3c(NC(=O)Nc4ccccc4)cccc3C(=O)N([C@@H](C)CO)C[C@@H]2C)cc1	-0.8
COc1ccc(NC(=O)N(C)C[C@@H]2Oc3c(NC(=O)C4CCCCC4)cccc3C(=O)N([C@H](C)CO)C[C@@H]2C)cc1	2.9
C[C@@H]1CN([C@@H](C)CO)C(=O)c2cc(NS(=O)(=O)c3ccc(Cl)cc3)ccc2O[C@H]1CN(C)C	0.1

Remaining list, next part
SMILES	A1 apoptosis 2
COc1ccc(NC(=O)Nc2ccc3c(c2)CC(=O)N([C@@H](C)CO)C[C@H](C)[C@H](CN(C)Cc2ccc(Oc4ccccc4)cc2)O3)cc1	-0.4
Cc1noc(C)c1NC(=O)N(C)C[C@H]1Oc2ccc(NS(=O)(=O)c3cccs3)cc2CC(=O)N([C@H](C)CO)C[C@@H]1C	-0.1
C[C@H]1CN([C@@H](C)CO)C(=O)c2cccc(NC(=O)c3nc4ccccc4s3)c2O[C@@H]1CN(C)C(=O)Nc1ccc2c(c1)OCO2	-0.1
C[C@@H]1CN([C@@H](C)CO)C(=O)c2cccc(NS(=O)(=O)c3cn(C)cn3)c2O[C@H]1CN(C)C	1.7
COc1ccc(S(=O)(=O)N(C)C[C@@H]2Oc3ccc(NC(=O)Nc4c(C)noc4C)cc3CC(=O)N([C@@H](C)CO)C[C@@H]2C)cc1	0.6
Cc1noc(C)c1S(=O)(=O)Nc1cccc2c1O[C@H](CN(C)C)[C@H](C)CN([C@@H](C)CO)C2=O	0.1
CC(C)NC(=O)Nc1ccc2c(c1)C(=O)N([C@@H](C)CO)C[C@@H](C)[C@@H](CN(C)S(=O)(=O)c1ccc(Cl)cc1)O2	-0.9
C#Cc1ccc([C@H]2C=C(C(=O)OCC=C)O[C@@H](OCC)[C@@H]2CCCO)cc1	-0.2
Cc1ccc(S(=O)(=O)Nc2ccc3c(c2)C(=O)N([C@H](C)CO)C[C@@H](C)[C@H](CN(C)S(=O)(=O)c2cn(C)cn2)O3)cc1	2.0
C[C@@H]1CN([C@@H](C)CO)C(=O)c2cccc(NC(=O)Nc3ccccc3)c2O[C@H]1CN(C)Cc1ccncc1	0.0
CC(C)NC(=O)Nc1ccc2c(c1)C(=O)N([C@@H](C)CO)C[C@H](C)[C@@H](CN(C)Cc1ccc(Cl)c(Cl)c1)OCCCC[C@@H](C)O2	0.3
COc1ccc(NC(=O)N(C)C[C@@H]2Oc3ccc(NS(=O)(=O)c4ccccc4)cc3CC(=O)N([C@H](C)CO)C[C@@H]2C)cc1	1.1
C[C@@H]1CCCCO[C@H](CN(C)C(=O)Nc2ccccc2)[C@@H](C)CN([C@@H](C)CO)C(=O)c2cc(NS(C)(=O)=O)ccc2O1	0.5
CNC[C@H]1Oc2ccc(NC(=O)CCC(F)(F)F)cc2CC(=O)N([C@@H](C)CO)C[C@H]1C	0.4
Cc1noc(C)c1NC(=O)Nc1cccc2c1O[C@H](CN(C)S(=O)(=O)c1ccccc1)[C@@H](C)CN([C@H](C)CO)C2=O	1.7
C[C@H]1CN([C@@H](C)CO)C(=O)Cc2cc(NC(=O)Nc3ccccc3)ccc2O[C@@H]1CN(C)C(=O)Nc1ccc(C(F)(F)F)cc1	-0.3
C[C@H]1CN([C@@H](C)CO)C(=O)Cc2cc(NS(=O)(=O)c3cn(C)cn3)ccc2O[C@H]1CN(C)C(=O)Nc1ccc2c(c1)OCO2	0.9
C[C@H]1CN([C@@H](C)CO)C(=O)Cc2cc(NC(=O)Nc3ccc4c(c3)OCO4)ccc2O[C@@H]1CN(C)Cc1ccc(Cl)c(Cl)c1	0.0
C[C@@H]1CN([C@H](C)CO)C(=O)c2cc(NC(=O)CCC(F)(F)F)ccc2O[C@@H](C)CCCCO[C@@H]1CN(C)C(=O)c1ccccc1	0.3
C[C@@H]1CCCCO[C@H](CN(C)C(=O)Nc2ccc3c(c2)OCO3)[C@H](C)CN([C@@H](C)CO)C(=O)c2cc(NS(=O)(=O)c3cccs3)ccc2O1	-0.6
C[C@@H]1CN([C@H](C)CO)C(=O)c2cccc(NC(=O)C3CC3)c2O[C@H]1CN(C)C(=O)Nc1ccc(C(F)(F)F)cc1	1.7
CNC[C@H]1Oc2c(N)cccc2C(=O)N([C@@H](C)CO)C[C@H]1C	0.6
Cc1noc(C)c1NC(=O)N(C)C[C@@H]1Oc2ccc(NC(=O)Nc3cccc4ccccc34)cc2C(=O)N([C@H](C)CO)C[C@H]1C	-0.4
COc1ccc(CN(C)C[C@H]2Oc3c(NS(C)(=O)=O)cccc3C(=O)N([C@H](C)CO)C[C@H]2C)cc1	0.1
C[C@@H]1CCCCO[C@@H](CN(C)C)[C@@H](C)CN([C@H](C)CO)C(=O)c2cc(NC(=O)Nc3ccc(C(F)(F)F)cc3)ccc2O1	-0.6
COc1ccc(S(=O)(=O)N(C)C[C@@H]2Oc3ccc(NC(=O)C4CC4)cc3CC(=O)N([C@H](C)CO)C[C@H]2C)cc1	0.3
C[C@H](CO)N1C[C@H](C)[C@@H](CN(C)S(=O)(=O)c2cccs2)OCCCC[C@H](C)Oc2ccc(NS(C)(=O)=O)cc2C1=O	-0.7
C[C@H]1CN([C@@H](C)CO)C(=O)c2cc(NC(=O)CCN3CCOCC3)ccc2O[C@H]1CN(C)Cc1ccc(C(=O)Nc2ccccc2N)cc1	0.1
C[C@H](CO)N1C[C@H](C)[C@@H](CN(C)Cc2ccccc2)Oc2ccc(NC(=O)Nc3ccc(C(F)(F)F)cc3)cc2C1=O	-1.2
C[C@H]1CN([C@@H](C)CO)C(=O)Cc2cc(NC(=O)Nc3ccc(C(F)(F)F)cc3)ccc2O[C@H]1CN(C)Cc1ccncc1	2.1
C[C@H](CO)N1C[C@H](C)[C@H](CN(C)Cc2ccc(C(=O)O)cc2)Oc2ccc(N(C)C)cc2C1=O	1.0
C[C@H](CO)N1C[C@H](C)[C@H](CN(C)Cc2ccccc2)Oc2ccc(NC(=O)C3CCCCC3)cc2C1=O	-0.8
CCCC(O)C#Cc1cnc2c(c1)C(=O)N([C@H](C)CO)C[C@H](C)[C@H](CN(C)C(=O)Nc1cccc3ccccc13)O2 (stereo partly drawn)	0.0
C[C@@H]1CCCCO[C@H](CN(C)C)[C@H](C)CN([C@@H](C)CO)C(=O)c2cc(NS(=O)(=O)c3ccc(F)cc3)ccc2O1	-0.2
C[C@@H]1CN([C@H](C)CO)C(=O)Cc2cc(NC(=O)Nc3ccc(C(F)(F)F)cc3)ccc2O[C@H]1CN(C)C(=O)Nc1ccc(C(F)(F)F)cc1	-0.4
COc1ccc(S(=O)(=O)N(C)C[C@@H]2Oc3c(NC(=O)NC4CCCCC4)cccc3C(=O)N([C@H](C)CO)C[C@@H]2C)cc1	0.7
